hNpr1 antagonist: Natriuretic polypeptide receptor (hNpr1) antagonism - Primary qHTS. Potency, µM (top dose mostly 46.3 µM), without a hit: at the top dose activity change, negative = inhibition, hits mostly inhibitors. Atrial natriuretic peptide receptor 1 (Homo sapiens), P16066. HEK293 hNpr1 GloSensor cGMP, ANP-stimulated luminescence. 76,000 tested, 1.6% active; active = well fitted inhibition curve with a large enough effect; inconclusive = small, poorly fitted or top-dose-only effect; inactive = no such curve, though single readings can be large or run the other way;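 note: nearly all actives have a fitted effect of over 60% in size; nearly all hits also lower the signal before the agonist is added; a reference antagonist and vehicle were the controls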
Target sequence (P16066 whole entry, looked up): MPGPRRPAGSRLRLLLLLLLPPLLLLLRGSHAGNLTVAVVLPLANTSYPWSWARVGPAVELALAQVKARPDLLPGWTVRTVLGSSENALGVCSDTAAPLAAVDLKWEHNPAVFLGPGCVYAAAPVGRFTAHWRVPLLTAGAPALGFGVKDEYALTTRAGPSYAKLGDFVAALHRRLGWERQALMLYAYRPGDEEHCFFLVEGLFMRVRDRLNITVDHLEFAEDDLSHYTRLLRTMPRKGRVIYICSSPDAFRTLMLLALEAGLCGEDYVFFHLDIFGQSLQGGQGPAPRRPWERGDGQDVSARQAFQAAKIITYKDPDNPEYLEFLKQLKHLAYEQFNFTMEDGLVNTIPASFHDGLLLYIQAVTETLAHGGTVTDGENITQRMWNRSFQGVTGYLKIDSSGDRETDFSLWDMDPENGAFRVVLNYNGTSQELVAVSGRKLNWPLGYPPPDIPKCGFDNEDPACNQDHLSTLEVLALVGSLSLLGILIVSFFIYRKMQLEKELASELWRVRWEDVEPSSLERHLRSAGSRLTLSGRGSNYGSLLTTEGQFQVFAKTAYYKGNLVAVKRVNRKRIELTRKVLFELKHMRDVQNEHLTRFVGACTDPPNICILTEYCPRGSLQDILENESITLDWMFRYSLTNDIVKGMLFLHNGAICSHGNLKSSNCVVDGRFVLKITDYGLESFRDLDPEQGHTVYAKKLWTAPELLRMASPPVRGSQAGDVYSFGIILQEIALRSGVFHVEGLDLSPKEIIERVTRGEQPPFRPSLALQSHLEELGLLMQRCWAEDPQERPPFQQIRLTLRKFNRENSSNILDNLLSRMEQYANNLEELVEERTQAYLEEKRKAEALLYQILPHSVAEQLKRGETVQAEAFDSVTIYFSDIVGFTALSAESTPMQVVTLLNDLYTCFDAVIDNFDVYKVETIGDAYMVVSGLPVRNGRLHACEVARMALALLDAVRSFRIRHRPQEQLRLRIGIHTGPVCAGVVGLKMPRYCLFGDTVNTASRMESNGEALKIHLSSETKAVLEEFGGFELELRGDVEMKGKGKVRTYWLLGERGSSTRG
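HEK293 cells stably expressing human Npr1 and cGMP GloSensor pGS-40F, loaded 2 h with 2% GloSensor reagent, given compound 30 min at room temperature. Luminescence read before and 20 min after 0.1 nM hNppA.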
An asterisk follows results filed as active; ? = inconclusive; [ ] = remark or other dose. % is set by controls: 0 for no effect and ±100 for the full control effect; potency is the fitted concentration of half-maximal effect. This is a subset; the hit share may differ from the screen's.

#	Molecule	hNpr1 antagonist
1	COc1ccc(CCC(=O)N2CCC3(CC2)C(=O)N(C)c2ccccc23)cc1	-10.1%
2	Cc1nn(-c2ccccc2)c(Oc2ccccc2)c1CCC(=O)NCC1CCCO1 (stereo unspecified)	-13.2%
3	O=C(c1cccc(Br)c1)N1CCN(c2cc(-c3cccs3)[nH]n2)CC1	-29.7%
4	COc1cccc(C(=O)N2CCC3(CCCCO3)CC2)c1	-8.7%
5	O=C1CCN(C(=O)C2CCN(C(=O)Cc3c[nH]c4ccccc34)CC2)CCCCCCN1	-1.9%
6	O=C(CC(F)(F)F)N1CCC(c2noc(-c3ccccc3)n2)C1 (stereo unspecified)	4.5%
7	COc1cc(C)cc(-c2cc(C(=O)O)cc(S(=O)(=O)N3CCOCC3)c2)c1OC	4.4%
8	CC(=O)N1CCC(Oc2ccc(Cl)cc2C(=O)NCC(C)c2ccccc2)CC1 (stereo unspecified)	-15.3%
9	Cn1cc(-c2nc(N3CCOCC3)cc3c2CN(c2ccccc2)C3=O)cn1	2.4%[70.6 µM]
10	COC1C(=O)N(c2cccc(F)c2)C12CCN(C(=O)c1ocnc1C)CC2 (stereo unspecified)	4.9%
11	CC(C)CNC(=O)N1CCCN(C(=O)C2CC2)C(c2ccccc2)CC(=O)NCC1 (stereo unspecified)	-6.5%
12	COCc1ccc2c(c1)c(OC(C)(C)C(=O)NCCN(C)C)nn2Cc1ccccc1	-2.9%[70.6 µM]
13	CCCN1C(=O)Cc2cc(C(=O)N3CCN(c4ccccc4Cl)CC3)ccc21	-2.0%
14	CC(C)NC(=O)N1CCCC1c1noc(CCC(=O)NCC2CC2)n1 (stereo unspecified)	-1.6%
15	COc1cccc(CC(=O)N2C[C@@H](CO)[C@H](c3nc(C4CC4)no3)C2)c1	1.2%
16	COCC(=O)N[C@@H]1CN(Cc2cccc(F)c2F)C[C@H]1CO	-0.7%
17	COc1ccc(C(=O)N[C@H]2CO[C@H]3[C@@H]2OC[C@@H]3Nc2nccc(-c3cccc(F)c3)n2)cc1	-1.5%
18	COCCn1nnnc1C1CC2(CCOCC2)C(=O)N1Cc1cccc(OC)c1 (stereo unspecified)	-2.1%
19	O=C(NC[C@H]1OC[C@@H](NCc2ccccc2F)[C@@H]1O)c1ccc(F)cc1	-1.0%[70.6 µM]
20	O=C(c1ccc2cc[nH]c2c1)N1CCC2(CC1)N=C(c1cccc(Br)c1)NO2	?
21	CN1CCCN(C[C@@H]2CN(C(=O)c3ccn(C)n3)C[C@@H]2CO)CC1	-1.0%
22	CC(C)c1noc(-c2cn(C3CCN(C(=O)c4cccc(Br)c4)C3)nn2)n1 (stereo unspecified)	11.2µM*
23	N#CCn1nc2n(c1=O)CCN(C(=O)Cc1c(F)cccc1Cl)CC2	-1.1%
24	COc1ccc(C(=O)N2CCC(n3cc(-c4nc(C(C)C)no4)nn3)CC2)cc1OC	-6.1%
25	CCOc1cccc(-c2nnc(CCC(=O)NCCc3ccccc3)c(=O)[nH]2)c1	-2.0%
26	FC(F)(F)c1ccc(Oc2ccc(CN3CCCC3)cc2Cl)nc1	0.4%
27	O=C(CCCc1nc2ccccc2s1)N1CCc2nc3cc(-c4ccccc4)[nH]n3c(=O)c2C1	-6.0%
28	CC(C)C(=O)N1CCC(C(NC(=O)c2ccccc2Cl)C(=O)N2CCCCC2)CC1 (stereo unspecified)	6.0%
29	COc1ccccc1CN1CCC[C@H]1c1nc(-c2ccc(F)cn2)no1	3.6%[70.6 µM]
30	Cc1cc(C(=O)N2CCC3(CC(=O)NC3=O)C2)c(-c2ccccc2)o1 (stereo unspecified)	0.8%
31	COc1cccc2c1OCC(CNC(=O)Cn1nc(C)c(C)cc1=O)C2 (stereo unspecified)	2.0%
32	O=C(CN1CCCC1=O)N1CCc2ncnc(N3CCOCC3)c2CC1	3.8%
33	Cc1nc(-c2cnccn2)n(CC(=O)Nc2cccc(C#N)c2)c(=O)c1C	2.3%
34	CNC(=O)N1CCC(C2CCN(C(=O)Cc3cccs3)C2)CC1 (stereo unspecified)	3.7%
35	CCc1cccc(NC(=O)N2CCC3(CC2)CC(=O)N(Cc2ccccc2)C3)c1	5.3%
36	C[S+](=O)([O-])CCn1ncc2cc(OCc3cccc(-c4cccc(O)c4)c3)ccc21	?
37	C[C@H](O)c1onc(-c2ccc(Cl)cc2)c1C(=O)NC1CCC1	-3.5%[70.6 µM]
38	Cc1nc(C)c(C(=O)N2CC(c3nnc(-c4ccncc4)o3)C3(CCOCC3)C2)s1 (stereo unspecified)	-6.9%
39	COC1CCC(C(=O)N2CCC3(CC2)OC(=O)N(Cc2ccccc2)C3(C)c2ccccc2)CC1 (stereo unspecified)	1.6%
40	CCOc1ccccc1C(=O)NCc1nnc2ccc(-c3ccc(C)cc3)nn12	-8.8%
41	O=C(Oc1ccccc1)N1CCC(Oc2cnc3c(ccn3-c3cncnc3)c2)CC1	35.5µM*
42	CC(=O)c1cccc(NC(=O)c2cc3c(n2C)CCN(Cc2cccc(F)c2)C3)c1	4.7%
43	CCc1nc2c(c(-c3ccc(O)cc3)n1)CCN(Cc1ccc(C)cc1)CC2	-6.9%
44	Cn1c(=O)c2ccnn2c2ccc(C(=O)NCC3CCN(Cc4ccccc4F)CC3)cc21	1.6%
45	CCCNC(=O)N(C1CCOCC1)C1CCN(S(=O)(=O)c2ccc(F)cc2)CC1	5.8%
46	CC(C)CCN(C)C(C)c1cccs1 (stereo unspecified)	-1.7%[70.6 µM]
47	COc1ccc2c(c1)OCC(CNC(=O)c1ccc(C(C)C)n(C)c1=O)C2 (stereo unspecified)	?
48	CCNC(=O)N1C[C@@H]2OCC(=O)N(Cc3ccc(OC)cc3)[C@@H]2C1	2.4%[70.6 µM]
49	O=C(c1ccc(N2CC3CC(C2)[C@H]2CCCC(=O)N2C3)nc1)N1CCN(c2ccc(Cl)cc2)CC1 (stereo partly specified)	0.8%
50	COCCOC1CCOC2(CCN(C(=O)c3cc(F)ccc3F)CC2)C1 (stereo unspecified)	7.6%

Next results:
#	Molecule	hNpr1 antagonist
51	Cc1occc1C(=O)N1C[C@@H](C(=O)O)C[C@H](C(=O)NCc2ccccn2)C1	-1.1%
52	C#CCN(C)Cc1nc(C2(O)CCN(C(=O)c3cccc(F)c3)CC2)cs1	4.2%[70.6 µM]
53	Cn1cncc1-c1nnc([C@H]2CCN(Cc3ccc(Cl)cc3)C2)o1	3.1%[70.6 µM]
54	COc1cc(CN(C)C(=O)c2c(C)noc2-c2cccc(F)c2)cc(OC)c1OC	1.3%
55	O=C1c2c(nc(COc3ccc(Cl)cc3)n2Cc2ccccc2)NCCN1CCOc1ccccc1	-14.8%
56	O=C1CO[C@H]2CCN(Cc3ccncc3)CC[C@@H]2N1Cc1c[nH]c2ccccc12	2.9%[70.6 µM]
57	COc1ccccc1CCC(=O)N1CCCN(c2cc(-c3ccc(Cl)cc3)[nH]n2)CC1	-26.3%
58	CC1(C)N=C(c2ccccc2)C(=O)N1CC(N)=O	6.4%
59	CCn1cc(S(=O)(=O)N2CCC(Cc3nncn3CC)C2)cn1 (stereo unspecified)	-1.5%
60	Cc1cnc(C(=O)N2CCn3c(nnc3[C@@H]3C[C@@H](O)CN3Cc3ccccc3)C2)cn1	4.2%
61	CCOc1ccc(C(=O)N2CC(c3nnc(-c4ccc(C)cc4)o3)C3(CCOCC3)C2)cc1 (stereo unspecified)	-0.4%
62	COCc1ccc2c(c1)c(OC(C)(C)C(=O)NCC1CCOCC1)nn2Cc1cccnc1	4.7%
63	O=C(c1ccc(C(F)(F)F)cc1)N1CCC2(Cc3ccccc3NC2=O)C1 (stereo unspecified)	?
64	COc1cccc(C(=O)N2CCN(c3cc(C(F)(F)F)ncn3)CC2)c1	8.0%
65	O=C(NC[C@H]1O[C@@H](CO)[C@@H](O)[C@H]1N1CCCCC1)Nc1ccccc1	-5.6%[70.6 µM]
66	O=C1CCN(S(=O)(=O)c2ccccc2)CCCC(C(=O)NC2CCCC2)CCN1 (stereo unspecified)	2.7%
67	CCOc1cccc(CN2CCOc3ccc(C(=O)NCc4ccccc4F)cc3C2)c1	-10.2%
68	CCc1ccc(CNC(=O)Cn2c(C)cc3nc4n(c(=O)c32)CCCC4)cc1	-7.9%
69	CC(=O)N[C@@H]1C=C[C@@H](c2c(C)nn(-c3ccc(C)c(Cl)c3)c2C)C1	?
70	Cc1cc(N2CCC(N3CCCC(C(=O)NCCc4ccccc4)C3)CC2)ncn1 (stereo unspecified)	1.4%
71	CCOC(=O)CC1CCCCN1C(=O)CCC1(Cc2ccc3ccccc3c2)CCC(=O)N1 (stereo unspecified)	-1.1%
72	CCOc1ccccc1C(=O)N1Cc2cnc(Cc3ccc(OC)cc3)nc2C1	-3.9%
73	Cc1cnc(CC2CCNC2)n1C1CC1 (stereo unspecified)	2.9%
74	O=C(c1ccccc1)N1CCC(Oc2nccnc2N2CCOCC2)C1 (stereo unspecified)	-5.8%
75	O=C(Nc1cccn2nc(C3CCC3)nc12)c1ccc(F)cc1	-15.6%
76	CCn1c(C2CCCNC2)nn(Cc2ccc(C(C)C)cc2)c1=O (stereo unspecified)	0.1%
77	Cc1[nH]c2ccccc2c1CN1CCc2nc(N3CCOCC3)[nH]c(=O)c2CC1	0.3%
78	CN1N=C(C(=O)N2CCc3c(nc(-c4ccncc4)[nH]c3=O)C2)CCC1=O	-1.5%
79	Cc1noc(C)c1Cc1ccc(C(=O)N2CCCCCCN(C)C(=O)[C@@H]3CCC[C@@H]32)o1	-0.5%
80	CCCOc1nccnc1NC1CCN(C(=O)c2ccccn2)CC1	-6.7%
81	CCCN1CCC(N2CCC(C(=O)Nc3cccc(-c4cccc(F)c4)c3)CC2)CC1	-20.0%
82	CN(Cc1ccon1)Cc1ccccc1OCC(O)CN1CCCCC1 (stereo unspecified)	5.3%
83	O=C(CCn1cncn1)N1CCOc2c(O)cc(-c3cccc(Cl)c3)cc2C1	6.7%
84	CN1CCN(c2cc(=O)c3ccnc(-c4ccnn4C)c3o2)CC1	1.5%[70.6 µM]
85	COc1ccc([C@H]2CN(C(=O)C3(c4ccc(F)cc4)CC3)C[C@@H]2N)cc1	0.6%
86	CS(=O)(=O)N1CC(n2cc(C(=O)NCC3CC3)nn2)C1	1.8%
87	Cc1ccc(NC(=O)N2CCc3c(C(=O)NC(C)C)cccc32)cc1	0.562µM*
88	Cc1ccc(-n2nc(C)c([C@@H]3C=C[C@@H](NC(=O)CC(C)(C)CC(=O)O)C3)c2C)cc1Cl	-7.5%
89	O=C(Cc1ccccn1)N1CCC(N2CC3CCCN3C2=O)CC1 (stereo unspecified)	1.3%[70.6 µM]
90	CC(C)c1nc2ccccc2n1CC(=O)N1CC[C@](C)(O)[C@@H](O)C1	5.1%

Quoted at random: three compounds from above
#	Molecule	hNpr1 antagonist
33	Cc1nc(-c2cnccn2)n(CC(=O)Nc2cccc(C#N)c2)c(=O)c1C	2.3%
12	COCc1ccc2c(c1)c(OC(C)(C)C(=O)NCCN(C)C)nn2Cc1ccccc1	-2.9%[70.6 µM]
48	CCNC(=O)N1C[C@@H]2OCC(=O)N(Cc3ccc(OC)cc3)[C@@H]2C1	2.4%[70.6 µM]

Back to the main list, starting 3 compounds before the break.
#	Molecule	hNpr1 antagonist
88	Cc1ccc(-n2nc(C)c([C@@H]3C=C[C@@H](NC(=O)CC(C)(C)CC(=O)O)C3)c2C)cc1Cl	-7.5%
89	O=C(Cc1ccccn1)N1CCC(N2CC3CCCN3C2=O)CC1 (stereo unspecified)	1.3%[70.6 µM]
90	CC(C)c1nc2ccccc2n1CC(=O)N1CC[C@](C)(O)[C@@H](O)C1	5.1%
91	COCC(=O)N1CC(CNc2ccccc2)C2(C1)CN(c1ccccc1)C2 (stereo unspecified)	-20.0%[70.6 µM]
92	O=C(Cn1ccn2nc3c(c2c1=O)CCCCC3)Nc1ccccc1F	0.1%
93	CN1C(=O)[C@H]2CN(Cc3ccc(Br)cc3)C[C@H]2C1=O	-0.2%
94	COCC(=O)N(C)Cc1ccc(-c2ccccc2)cc1	3.2%[70.6 µM]
95	CCN1C(=O)CN(C(=O)C2CC2)CC12CCOCC2	1.7%
96	CCOc1ccccc1NC(=O)N1CCCN(S(=O)(=O)c2ccccc2)CCC(=O)NCC1	0.3%
97	COCCn1nc2n(c1=O)CCN(Cc1ccc(Br)s1)CC2	3.2%
98	CCOc1ccc(CC(=O)N2CCC(C3CCN(C(=O)NC)CC3)C2)cc1 (stereo unspecified)	-2.2%
99	CC[C@H]1CN(C(=O)Nc2cccc(OC)c2)CC[C@H]1CC(=O)NCc1ccccc1	-12.6%[70.6 µM]
100	O=C(NCc1ccc(F)cc1F)c1noc(-c2ccc(F)cc2)n1	-7.5%
101	COCCNC(=O)[C@H]1C[C@H](Oc2ccccc2)CN1C(=O)Nc1ccc2c(c1)OCCO2	0.1%
102	O=C1[C@H]2CN(Cc3cc(F)cc(F)c3)C[C@H]2C(=O)N1Cc1ccc2c(c1)OCO2	-2.7%
103	O=C(CCc1ccc2c(c1)CNCCO2)NCC1CC1	1.4%
104	CN1C(=O)CC[C@]2(C(=O)NCc3ccc4c(c3)OCO4)CCCC[C@@H]12	6.0%
105	CCc1cccc(NC(=O)C2(C)CCCCC(=O)N2)c1 (stereo unspecified)	0.0%
106	Cc1ccc(S(=O)(=O)N(C)CC2CCOCC2)c(C)c1	-14.4%
107	CN1CCc2c([nH]c3ccccc23)C12CCN(C(=O)c1cccs1)CC2	-0.3%
108	Cc1noc(-c2cccc(OC3CN(C(=O)c4sccc4C)C3)c2)n1	-0.5%
109	Cc1ccc(Cn2c(C3CCN(C(=O)c4sccc4C)CC3)n[nH]c2=O)cc1	-2.4%
110	O=C1CCN(C(=O)C2CCN(C(=O)c3ccco3)CC2)CCCCCCN1	-2.0%

Screening data: PubChem BioAssay, National Center for Advancing Translational Sciences (NCATS)
